# Screening data deposited in PubChem BioAssay by National Center for Advancing Translational Sciences (NCATS).
# Rango dissoc inh – inhibitors of RanGTP-induced Rango-importin beta complex dissociation; AID 540253; O95149+P62826; Biochemical FRET Rango-importin beta, RanGTP-induced dissociation; 0.071% of 340,000 active; Potency, µM (top dose mostly 46.1 µM), for inactives: top-dose activity change, negative = inhibition; active means falling FRET ratio curve, often poorly fitted, with flat reads before Ran was added; inconclusive means other falling curves, or compound fluorescence or quenching; inactive means flat or rising ratio curve;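 note: potency is the fitted concentration of half-maximal effect; % of control where 0% means no effect; nearly all actives have a fitted effect of over 45% in size; -100% = wells without RanGTP and RCC1; the record marks most hits as doubtful in a second field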
#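 FRET read at 45 min, room temperature: inhibitors block the CFP/YFP signal rise when RanGTP (0.6 uM Ran, 2 mM GTP, 0.2 uM RCC1) frees Rango (0.1 uM) from importin beta (0.25 uM). Pre-read after 5 min compound exposure flags interference.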
# Rango complex inh – inhibitors of Rango-importin beta complex formation | Q14974 | Potency, µM (top dose mostly 92.2 µM), for inactives: top-dose inhibition of complex formation | 0.031% of 340,000 active | Rango CFP/YFP FRET sensor + importin beta, 45 min; active = rising FRET ratio curve, often small or poorly fitted; inconclusive = mostly compound fluorescence or quenching in the first reads; inactive = flat curves in all reads;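 note: potency is the fitted concentration of half-maximal effect; 0% = DMSO wells and 100% = buffer wells lacking importin beta; nearly all actives have a fitted effect of over 15% in size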
# Target sequence (Q14974 whole entry, looked up): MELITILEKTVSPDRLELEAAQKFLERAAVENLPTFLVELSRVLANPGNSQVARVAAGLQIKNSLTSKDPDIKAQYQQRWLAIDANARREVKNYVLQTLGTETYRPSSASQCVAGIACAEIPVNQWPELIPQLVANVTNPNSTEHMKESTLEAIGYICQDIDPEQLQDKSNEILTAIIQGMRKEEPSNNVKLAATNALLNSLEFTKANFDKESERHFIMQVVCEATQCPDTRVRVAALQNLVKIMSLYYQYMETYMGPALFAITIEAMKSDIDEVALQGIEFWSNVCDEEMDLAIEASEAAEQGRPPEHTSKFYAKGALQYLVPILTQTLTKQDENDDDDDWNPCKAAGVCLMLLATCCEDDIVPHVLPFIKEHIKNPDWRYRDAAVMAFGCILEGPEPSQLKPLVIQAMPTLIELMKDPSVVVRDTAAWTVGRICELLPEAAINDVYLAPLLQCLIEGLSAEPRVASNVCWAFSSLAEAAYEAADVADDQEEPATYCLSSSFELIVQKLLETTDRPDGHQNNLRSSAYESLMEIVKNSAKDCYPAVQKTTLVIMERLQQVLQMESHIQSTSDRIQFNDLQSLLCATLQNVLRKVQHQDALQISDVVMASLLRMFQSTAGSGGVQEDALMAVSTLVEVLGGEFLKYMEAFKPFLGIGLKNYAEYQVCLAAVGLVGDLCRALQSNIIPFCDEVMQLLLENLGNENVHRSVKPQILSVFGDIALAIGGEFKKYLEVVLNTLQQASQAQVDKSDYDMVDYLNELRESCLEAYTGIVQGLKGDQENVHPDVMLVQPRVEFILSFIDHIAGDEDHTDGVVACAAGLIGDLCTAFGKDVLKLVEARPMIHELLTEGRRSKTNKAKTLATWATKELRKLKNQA
#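 Inhibition scored from the CFP 486 nm/YFP 530 nm FRET ratio 45 min after adding 0.125 microM importin beta to 50 nM Rango biosensor preincubated 5 min with compound (room temperature, PBS with DTT, Tween-20, BSA). No-importin wells as positive control.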
# GLA inh pH 4.5 – alpha-galactosidase A (human) inhibition, pH 4.5; activity change, negative = inhibition, % at 105 µM; purified enzyme, 4-MU-alpha-Gal fluorescence, pH 4.5; 230,000 tested, under 10 active; inconclusive = small, poorly fitted or top-dose-only inhibition, or a rising curve; inactive = flat fitted curve, though single readings scatter; no compound was filed as active;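 note: 0% = full activity with enzyme and -100% = basal without enzyme; dose as in the result columns while the protocol names 77 µM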
# miR-21 FLuc – raises the signal of a miR-21 reporter; 340,000 tested, under 10 active; Potency, µM (doses to about 38.3 µM), for the others: at the top dose reporter change, positive = more light; HeLa miR-21 FLuc reporter, luciferase, 48 h; AID 2288; active = well fitted rising curve with a large enough effect; inconclusive = small, poorly fitted or top-dose-only effect; inactive = no such curve, though single readings can be large or run the other way;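 note: % of control where 0% means no effect; miR-21 action dims this reporter so a rising signal means less miR-21 action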
#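 Luminescence from a firefly luciferase reporter carrying a miR-21 binding site downstream, stably expressed under a CMV promoter in HeLa cells that make miR-21 endogenously, reports miRNA modulation after 48 h compound exposure up to approximately 40uM final.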
# Starred values were filed as active, the others as inactive; ? = inconclusive; . = not tested or not shown; & = joins results of further samples.
1	COc1ccc(N(C)S(=O)(=O)c2cccc(C(=O)Nc3ccc(N4CCOCC4)cc3)c2)cc1
2	COc1ccc(C(=O)Nn2c(SCC(=O)c3ccccc3)nc3ccccc3c2=O)cc1
3	Cc1cc(Nc2ccc(Br)c(C)c2)n2nc(C)nc2n1
4	COCCn1c(SCC(N)=O)nc2c(c1=O)SC(C)C2 (centres undefined)
5	CC(C)Oc1ccc(C(=O)NC2(C(F)(F)F)N=C3SCCN3C2=O)cc1 (centres undefined)
6	O=C(/C=C/c1cccc([N+](=O)[O-])c1)Nc1ccccc1N1CCOCC1
7	COCCN=c1scc(C)n1/N=C/C1CC2C=CC1C2 (centres undefined)
8	O=C(NC1(C(F)(F)F)N=C(c2ccccc2)NC1=O)c1ccc(Cl)cc1Cl (centres undefined)
Screen / compound no.	1	2	3	4	5	6	7	8
Rango dissoc inh	15.0%	-12.4%	-9.1%	-16.1%	-0.3%	9.1%	-10.5%	0.0%
Rango complex inh	-1.0%	3.7%	5.1%	-3.1%	3.5%	8.5%	3.3%	0.6%
GLA inh pH 4.5	.	1.8	2.6	-0.2	-0.9	3.9	-7.3	-10.8
miR-21 FLuc	.	-5.5%	-13.5%	-2.6%	-0.1%	-0.9%	-7.8%	-6.1%

# Single records, as listed above. Screens in order: Rango dissoc inh	Rango complex inh	GLA inh pH 4.5	miR-21 FLuc
# `O=C(NC1(C(F)(F)F)N=C(c2ccccc2)NC1=O)c1ccc(Cl)cc1Cl` (centres undefined) is listed as 0.0%	0.6%	-10.8	-6.1%
# `O=C(/C=C/c1cccc([N+](=O)[O-])c1)Nc1ccccc1N1CCOCC1` is listed as 9.1%	8.5%	3.9	-0.9%
# `COc1ccc(N(C)S(=O)(=O)c2cccc(C(=O)Nc3ccc(N4CCOCC4)cc3)c2)cc1` is listed as 15.0%	-1.0%	.	.

# (next part)
9	COc1ccccc1N(C)S(=O)(=O)c1ccc(C)c(C(=O)NC(C)c2ccccn2)c1 (centres undefined)
10	CNS(=O)(=O)c1cccc(C(=O)NCC(c2ccco2)N(C)C)c1 (centres undefined)
11	CC(C)CCOP(=O)(c1ccc(N(C)C)cc1)C(O)c1ccccc1F (centres undefined)
12	CC(C)n1nnnc1SCC(=O)N1N=C(c2cccs2)CC1c1cccs1 (centres undefined)
13	c1coc(-c2nnc3sc(Cc4cccs4)nn23)c1
14	CNC(=O)c1ccccc1NC(=O)C1CC(=O)N(c2ccc(OC)cc2)C1 (centres undefined)
15	O=C(c1ccco1)N1CCN(Cc2cc(=O)c(OCc3ccc(F)cc3)co2)CC1
16	Cc1ccccc1-n1nc2c(c1NC(=O)c1ccc3c(c1)OCO3)CS(=O)(=O)C2
Screen / compound no.	9	10	11	12	13	14	15	16
Rango dissoc inh	1.9%	-1.1%	-7.0%	-1.4%	10.4%	22.3%	4.9%	-7.2%
Rango complex inh	-5.3%	-2.2%	2.6%	-2.1%	?	-0.7%	2.5%	-0.6%
GLA inh pH 4.5	.	.	0.9	.	2.2	-1.7	.	.
miR-21 FLuc	.	1.1%	20.2%	.	-21.2%	-10.9%	.	-3.8%

17	Cc1ccc(-n2nnnc2-c2cnc3ccc(Cl)cc3c2-c2ccccc2)cc1
18	CCOc1ccc(NC(=O)c2ccc3c(=O)n4c(nc3c2)CCCCC4)cc1
19	COc1cc(/C=N/NC(=O)CC2(C)OCCO2)cc(Br)c1O
20	NC(=O)[C@@H]1CCCNc2c(I)cc([N+](=O)[O-])cc2C(=O)N[C@@H](Cc2ccccc2)C(=O)N[C@@H](Cc2cnc[nH]2)C(=O)N1
21	COc1ccc(NC(C)=O)cc1NC(=O)CSc1nnc(-c2ccccc2)n1N
22	COCc1cc(C)nc2sc(C(=O)Nc3ccccc3Br)c(N)c12
23	O=C(C1CCCO1)N1CCN(S(=O)(=O)c2cc(F)ccc2F)CC1 (centres undefined)
24	O=C(CCCCCCCC(=O)N1CCCCCC1)N1CCCCCC1
Screen / compound no.	17	18	19	20	21	22	23	24
Rango dissoc inh	-3.7%	-4.9%	-2.6%	-24.8%	16.1%	?	0.2%	-13.9%
Rango complex inh	2.0%	-1.2%	3.9%	1.4%	?	?	0.1%	-0.7%
GLA inh pH 4.5	7.6	.	-5.4	2.4	16.1	.	.	.
miR-21 FLuc	0.3%	-5.7%&-6.5%	1.6%	-2.3%	-5.4%	-15.5%	-1.2%	.

25	CCCc1cc(=O)n2[nH]c(NCc3ccccc3Cl)nc2n1
26	COc1ccc(NC(=O)C2CC(c3ccccc3Cl)=NO2)cc1 (centres undefined)
27	O=C(O)c1c(-c2ccccc2)nnc2ccccc12
28	C=C(C)C1Cc2c(C)nn(-c3cccc4cccnc34)c2C1 (centres undefined)
29	O=S1(=O)Cc2cc3ccccc3cc2C1
30	CC(C)[C@H](NC(=O)N1CCn2c1nc1ccccc12)C(=O)N1CCCCC1
31	CC(C)Cc1cc(C(=O)N2N=C(C(F)F)CC2(O)C(F)F)c2ccccc2n1 (centres undefined)
32	Cc1cc(C)[n+](-c2ccc(F)cc2)c2[nH]c(=O)[nH]c(=O)c12
Screen / compound no.	25	26	27	28	29	30	31	32
Rango dissoc inh	18.1%	6.4%	9.0%	-10.2%	1.5%	2.3%	-7.6%	?
Rango complex inh	-3.8%	-0.5%	1.8%	2.0%	-2.7%	-0.3%	-3.9%	-3.4%
GLA inh pH 4.5	11.8	.	.	1.6	2.5	.	4.5	?
miR-21 FLuc	-4.4%	-33.1%	-6.7%	1.1%	-6.6%	1.0%	-3.1%	-8.1%

33	O=C(O)C1=C[C@H](c2ccc(Br)cc2)C[C@H](OCc2ccc(CO)cc2)O1
34	CCOCCn1c(=O)c2c(nc3n2CCCN3CCc2ccccc2)n(C)c1=O
35	COc1ccc2nc(NC(=O)Nc3cccc4ccccc34)sc2c1
36	N#CC1(NC(=O)CN2CCc3ccccc3C2)CCCC1
37	C=CC[C@@H](CC(=O)N[C@@H](CO)Cc1ccccc1)C(=O)N[C@H](COC(=O)[C@@H](CC=C)CC(=O)OC(C)(C)C)Cc1c[nH]c2ccccc12
38	Cc1cccc(C(=O)NCCN2CCOCC2)c1[N+](=O)[O-]
39	O=C(Nc1c2c(nn1-c1ccc(F)cc1)CS(=O)C2)c1ccc(S(=O)(=O)N2CCOCC2)cc1 (centres undefined)
40	COc1cc(NS(=O)(=O)c2cc(C(=O)NCCc3ccccn3)ccc2OC)cc(OC)c1
Screen / compound no.	33	34	35	36	37	38	39	40
Rango dissoc inh	7.1%	15.8%	10.1%	8.4%	-10.7%	2.3%	14.2%	27.3%
Rango complex inh	-0.6%	1.1%	-4.0%	-0.8%	0.8%	4.9%	5.7%	-6.5%
GLA inh pH 4.5	-2.0	.	0.0	-5.9	.	4.8	-11.8	.
miR-21 FLuc	-5.5%	3.9%	-42.9%	0.9%	.	-6.9%	-1.7%	.

41	COC(=O)Nc1nc(C)c(C(=O)c2ccccc2)s1
42	Cc1cc(C(=O)NN=C2CCCCCCC2)c2ccccc2n1
43	CC(C)c1nnc(NC(=O)CCC(=O)Nc2ccc(F)cc2)s1
44	COC(=O)c1ccc(COc2ccc3c(C)c(C)c(=O)oc3c2)o1
45	CCOc1ccc(NC(=O)CN(C)C(=O)/C=C/c2ccc(S(=O)(=O)N3CCCCCC3)cc2)cc1OCC
46	CSCCC(NC(=O)c1ccco1)C(=O)OCc1cc([N+](=O)[O-])cc2c1OCOC2 (centres undefined)
47	N=C1C(c2nc3ccccc3s2)=C(O)CN1NC(=O)c1ccccc1[N+](=O)[O-]
48	CCC(C(=O)OCC(=O)Nc1c(C)nn(-c2ccccc2)c1C)c1ccccc1 (centres undefined)
Screen / compound no.	41	42	43	44	45	46	47	48
Rango dissoc inh	-9.3%	-4.7%	-3.9%	1.3%	13.5%	4.9%	19.9%	-14.5%
Rango complex inh	-4.3%	-0.4%	-0.1%	0.6%	3.2%	-0.7%	?	3.4%
GLA inh pH 4.5	-10.7	.	2.3	-10.5	.	1.2	0.5	.
miR-21 FLuc	21.5%	.	-4.6%	-13.3%	.	5.3%	-0.6%	.

49	CC(=O)C[C@H](O)CC(=O)[C@@H]1OC(=O)CCCCCCc2ccccc21
50	O=C(NCc1ccccn1)C1CCN(S(=O)(=O)c2ccccc2F)CC1
51	CC1=C([N+](=O)[O-])C(c2ccccc2)C2=C(N1)c1ccccc1C2=O (centres undefined)
52	CCC(=O)Nc1c(-c2ccc(Cl)cc2)c(=O)c2ccccc2n1C
53	COc1ccc(NC(=O)/C=C/c2cc(OC)c(OC)c(OC)c2)cn1
54	O=c1oc(Nc2ccccc2Cl)nc2ccccc12
55	CCCCCCCCNC(=O)C(CCC(=O)OCc1ccccc1)NC(C)=O (centres undefined)
56	CC(C)=CC[N+]1(C)CCCCC1
Screen / compound no.	49	50	51	52	53	54	55	56
Rango dissoc inh	3.0%	20.1%	0.3%	-15.9%	-6.7%	-8.1%	9.0%	-12.3%
Rango complex inh	-0.7%	5.1%	-3.0%	-0.2%	-0.7%	0.3%	8.9%	0.5%
GLA inh pH 4.5	.	.	-1.5	.	8.6	0.0	-0.2	-1.1
miR-21 FLuc	.	.	21.6%	0.1%	21.6%	-40.3%	-9.6%	-2.4%

# Four compounds from above, limited to Rango dissoc inh, GLA inh pH 4.5 and Rango complex inh.
no. | smiles | Rango dissoc inh | GLA inh pH 4.5 | Rango complex inh
33 | O=C(O)C1=C[C@H](c2ccc(Br)cc2)C[C@H](OCc2ccc(CO)cc2)O1 | 7.1% | -2.0 | -0.6%
34 | CCOCCn1c(=O)c2c(nc3n2CCCN3CCc2ccccc2)n(C)c1=O | 15.8% | . | 1.1%
35 | COc1ccc2nc(NC(=O)Nc3cccc4ccccc34)sc2c1 | 10.1% | 0.0 | -4.0%
36 | N#CC1(NC(=O)CN2CCc3ccccc3C2)CCCC1 | 8.4% | -5.9 | -0.8%

# The list continues.
57	Cc1cccc(C(=O)OC2CCOC2=O)c1C (centres undefined)
58	O=C1Nc2ccc([N+](=O)[O-])cc2OC1CCN1CCN(Cc2ccccc2)CC1 (centres undefined)
59	Cc1nc2scc(C)n2c(=O)c1S(=O)(=O)Nc1ccc(F)cc1
60	Cc1ccc(NC(=O)CN(C)CCOc2ccccc2)c([N+](=O)[O-])c1
61	CC(C)CC(C(=O)Nn1cnnc1)N1C(=O)c2ccccc2C1=O (centres undefined)
62	CC(=O)c1ccc(NC(=O)CSc2ccc(-c3ccc4c(c3)OCO4)nn2)cc1
63	Cc1c([N+](=O)[O-])nnn1-c1cc(Cl)cc(Cl)c1
64	COc1ccccc1NC(=O)C1CCCN(S(=O)(=O)c2ccc3c(c2)CC(C)N3C(C)=O)C1 (centres undefined)
Screen / compound no.	57	58	59	60	61	62	63	64
Rango dissoc inh	-1.0%	?	-1.1%	18.3%	4.0%	0.1%	16.9%	0.4%
Rango complex inh	2.3%	?	1.8%	0.0%	-6.9%	2.1%	-0.9%	0.4%
GLA inh pH 4.5	.	-1.3	.	.	-0.1	-2.9	-5.3	.
miR-21 FLuc	-1.7%	-1.4%	-1.0%	-11.9%	-0.2%	-17.8%	-4.1%	1.1%

65	Cc1ccc(CC(=O)NC2CCN(C)CC2)cc1
66	CCOC(=O)C1CCCN(C(=O)COC(=O)c2cc(=O)c3ccccc3o2)C1 (centres undefined)
67	CCCC1(C)Nc2ccccc2-c2nc3ccccc3n21 (centres undefined)
68	CCOC(=O)c1[nH]cnc1C(=O)Nc1ccncc1
69	CC(C)NC(=O)CCn1ccc2cc(S(=O)(=O)N3CCCC3)ccc21
70	COc1ccc2cc(C#N)c(N3CCN(C(=O)c4ccccc4C)CC3)nc2c1
71	O=C(Cc1ccccc1Cl)Nc1ccc(S(=O)(=O)Nc2nccs2)cc1
Screen / compound no.	65	66	67	68	69	70	71
Rango dissoc inh	11.3%	-3.4%	22.8%	17.1%	-9.1%	2.2%	13.8%
Rango complex inh	-3.5%	-4.0%	-2.1%	0.3%	-0.3%	-0.1%	-2.3%
GLA inh pH 4.5	.	-9.9	?	1.0	.	-5.3	.
miR-21 FLuc	-4.3%	6.4%	-4.4%	-0.3%	2.8%	23.8%	-9.0%

# This is a subset; rates above refer to the full screens.
